Screens (PubChem)
gsp ag = qHTS for Agonist of gsp, the Etiologic Mutation Responsible for Fibrous Dysplasia/McCune-Albright Syndrome: qHTS. gsp mutant cells, cAMP HTRF, 30 min; control for the full effect not named in the record. Potency, µM (doses to about 76.9 µM), without a hit: at the highest dose activation (cAMP increase), usual class: activators. AID 624287, 2012. actives 0.13% (n = 340,000); active = well fitted activation curve with a large enough effect; inconclusive = small, poorly fitted or top-dose-only effect, or another doubt; inactive = no such curve, though single readings can be large or run the other way; cell line not stated here;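 further: phosphodiesterase inhibitor Ro 20-1724 added with compounds to block cAMP breakdown; potency means the concentration at half of the fitted maximal effect; nearly all actives have a fitted effect of over 60% in size; about a fifth of the inactives were tested at one dose only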
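Cells stably selected in G418 were plated at 2000/well, grown 16-24 hr, then given compounds in DMSO with the PDE inhibitor […] (300 uM solution added) for 30 min at 37C; cAMP was read by HTRF.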
gsp antagonist = qHTS for Antagonists of gsp, the Etiologic Mutation Responsible for Fibrous Dysplasia/McCune-Albright Syndrome: qHTS; gsp-mutant cells, cAMP HTRF, 30 min; control for the full effect not named in the record; Potency, µM (series often up to 76.9 µM), without a hit: top-dose activity change, negative = inhibition, hits mostly inhibitors; actives 0.4% (n = 340,000); AID 624288, 2012; active = falling curve of any shape with a large fitted effect; inconclusive = falling curve, mostly with a smaller effect; inactive = flat or rising curve; cell line not stated here;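 further: intracellular cAMP measured with PDE inhibitor Ro 20-1724 present during compound exposure; potency means the concentration at half of the fitted maximal effect; on the % scale 0 is the no-effect control and ±100 the full control effect; nearly all actives have a fitted effect of over 65% in size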
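G418-selected cells were plated in DMEM/10% FBS for 16-24 h at 37C, then treated with compounds plus the PDE inhibitor […] (300 uM solution added) for 30 min at 37C. Intracellular cAMP was measured by HTRF after 30 min lysis at room temperature.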
TRPML1 inh = qHTS for Inhibitors of the Human Mucolipin Transient Receptor Potential 1 (TRPML1) | Mucolipin-1 (Homo sapiens), Q9GZU1 | TRPML1-inducible cells, Ca2+ dye fluorescence, FDSS; stronger effect = lower value; inhibition of EC80 agonist-evoked calcium signal | activity change, negative = inhibition, % (concentration not given with the values) | actives 0.02% (n = 390,000); in the data active means activity change below about -50%; inconclusive means about -30% to -50%; inactive means above about -30%;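 further: stimulus is agonist 54-4 at its EC80 concentration; on the % scale 0 is the no-effect control and ±100 the full control effect; compound concentration not given in the record; the text of the record puts the active cut at -80%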
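Tet-induced TRPML1-DL cells loaded with Ca8 no-wash calcium dye were read kinetically on FDSS. Compound addition was followed by EC80 agonist 54-4 (4 uM final); inhibition was read over 110 s.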
TRPV1 PAM = HTS Assay for Compounds that Act as Potentiators of the Vanilloid Receptor 1; actives 0.02% (n = 320,000); AID 540277, 2011; potentiation, % at 8.33 µM; TRPV1-expressing cells, Fluo-8 calcium influx, capsaicin EC20 potentiation; host cell line not named in the record; control for the full effect not named in the record; Transient receptor potential cation channel subfamily V member 1 (Homo sapiens), Q8NER1; active means potentiation above 80%; inconclusive means 30% to 80%; inactive means below 30%; further: 0% is about no effect
Target sequence (Q8NER1 whole entry, looked up): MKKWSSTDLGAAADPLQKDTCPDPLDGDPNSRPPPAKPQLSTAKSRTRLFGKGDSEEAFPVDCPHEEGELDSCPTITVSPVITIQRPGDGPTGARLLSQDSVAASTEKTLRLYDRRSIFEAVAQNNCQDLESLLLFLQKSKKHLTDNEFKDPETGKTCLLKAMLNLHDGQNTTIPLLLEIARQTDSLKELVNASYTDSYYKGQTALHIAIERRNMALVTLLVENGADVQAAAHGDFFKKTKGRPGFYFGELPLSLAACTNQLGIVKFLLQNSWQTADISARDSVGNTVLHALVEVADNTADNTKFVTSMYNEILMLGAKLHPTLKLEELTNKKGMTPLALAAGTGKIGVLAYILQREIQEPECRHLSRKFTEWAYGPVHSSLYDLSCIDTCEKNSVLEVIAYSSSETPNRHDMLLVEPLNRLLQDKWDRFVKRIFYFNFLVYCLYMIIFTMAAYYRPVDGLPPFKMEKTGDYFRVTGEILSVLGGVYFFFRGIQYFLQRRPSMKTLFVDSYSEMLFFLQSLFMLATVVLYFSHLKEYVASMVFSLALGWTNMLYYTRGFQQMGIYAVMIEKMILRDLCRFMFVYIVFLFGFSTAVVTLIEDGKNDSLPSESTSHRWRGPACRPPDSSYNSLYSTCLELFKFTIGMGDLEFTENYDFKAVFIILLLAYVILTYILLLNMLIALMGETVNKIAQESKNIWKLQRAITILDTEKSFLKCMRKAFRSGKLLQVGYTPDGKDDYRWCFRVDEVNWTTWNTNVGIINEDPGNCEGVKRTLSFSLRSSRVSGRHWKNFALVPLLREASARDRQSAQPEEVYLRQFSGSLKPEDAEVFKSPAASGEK
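Cells expressing TRPV1 were dye-loaded with Fluo-8 and read kinetically: 10 s baseline, 3 min after compound (agonist portion), then 2 min after EC20 capsaicin (allosteric enhancer portion). Calcium-bound dye fluorescence at 480/520 nm.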
ClpP mod = qHTS Assay for Activators of ClpP; ATP-dependent Clp protease proteolytic subunit (Bacillus subtilis (strain 168)), P80244; purified B. subtilis ClpP, FRET peptide cleavage, 20 min; Potency, µM (series often up to 57.5 µM), for the others: top-dose activity change, negative = active; actives 1.9% (n = 340,000); AID 651965, 2013; active = well fitted falling curve with a large enough effect; inconclusive = small, poorly fitted or top-dose-only effect; inactive = no such curve, though single readings can be large or run the other way; further: potency means the concentration at half of the fitted maximal effect; the source files actives as falling curves though it sought activators and does not explain the sign; nearly all actives have a fitted effect of over 65% in size; many hits overshoot -100%
Target sequence (P80244 whole entry, looked up): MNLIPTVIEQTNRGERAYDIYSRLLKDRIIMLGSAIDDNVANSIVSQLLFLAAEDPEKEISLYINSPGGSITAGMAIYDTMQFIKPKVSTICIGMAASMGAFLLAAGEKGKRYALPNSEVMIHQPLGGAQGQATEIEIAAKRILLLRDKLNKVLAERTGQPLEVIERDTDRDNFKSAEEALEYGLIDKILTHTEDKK
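Purified B. subtilis ClpP, 10 microg/mL final in Tris/HCl pH8 with KCl, BSA, glycerol and Tween-20, cleaved an Abz/nitrotyrosine-quenched decapeptide. Fluorescence (ex 320, em 430) was read at 0 and 20 min at room temperature. Delta was normalized to 5.8 microM ADEP and DMSO/no-enzyme controls.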
Menin-MLL FL inh = qHTS Assay for Inhibitors Targeting the Menin-MLL Interaction in MLL Related Leukemias: Competition With Fluorescein Labeled MLL-derived Peptide | Fluorescence polarization, fluorescein-MLL peptide displacement from menin | FP activity change, % at 61.4 µM | 290,000 tested, under 10 active; inconclusive = falling polarisation curve, or a change in total fluorescence; inactive = total fluorescence flat and polarisation flat or rising; no compound was filed as active; the % refers to the polarisation; negative = inhibition;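 further: % of control where 0% means no effect; inhibitors lower the polarisation; unlabelled MLL peptide was the positive control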
Sfp PPTase inh = qHTS Assay for Inhibitors of Bacillus subtilis Sfp phosphopantetheinyl transferase (PPTase); Potency, µM, inactives show max response, negative = inhibition, usual class: inhibitors; actives 3.5% (n = 310,000); Biochemical Sfp PPTase activity, qHTS; 4'-phosphopantetheinyl transferase ffp (Bacillus subtilis), Q9F4F7; active means well fitted inhibition curve with a large enough effect; inconclusive means small, poorly fitted or top-dose-only effect, or another doubt; inactive means no such curve, though single readings can be large or run the other way;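 further: the enzyme is Sfp with the accession as filed and its product quenches rhodamine fluorescence; potency means the concentration at half of the fitted maximal effect; 0% = enzyme reaction without inhibitor and -100% = no enzyme wells; top concentration of the series not given in the record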
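After 15 min at room temperature with compound, 15 nM Sfp received 5 uM rhodamine-CoA plus 12.5 uM BHQ-2-ybbR (50 mM Hepes pH 7.6, 10 mM MgCl2). Rate came from the fluorescence difference over 30 min, ex 525/em 598 nm.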
An asterisk follows results filed as active; [ ] = remark or other dose.

What do the screens show for `O=C(NCCc1cccnc1)C1CCC(=O)N(Cc2cccc(C(F)(F)F)c2)C1` (stereo not given)?
gsp ag: 16%; gsp antagonist: -5%; TRPML1 inh: -18; TRPV1 PAM: -13; ClpP mod: 1.1%; Menin-MLL FL inh: -6.5; Sfp PPTase inh: 12%

What do the screens show for `Cc1ccc(N/N=C(\C#N)C(=O)c2ccsc2)cc1`?
gsp ag: -3%; gsp antagonist: inconclusive; TRPML1 inh: -12; TRPV1 PAM: -3; ClpP mod: 0.7%; Menin-MLL FL inh: 2.1; Sfp PPTase inh: -3%

Results for CCOc1ccc(CCNC(=O)COC(=O)c2ccco2)cc1OCC ?
gsp ag: 2%; gsp antagonist: 11%; TRPML1 inh: -10; TRPV1 PAM: -2; ClpP mod: -0.8%; Menin-MLL FL inh: 0.4; Sfp PPTase inh: 17%

How did CCOC(=O)c1c(C)n(-c2ccc(OC)cc2)c2ccc(O)c(CN(C)C)c12 do in these assays?
gsp ag: 25%; gsp antagonist: 16%; TRPV1 PAM: inconclusive; ClpP mod: -1.9%; Menin-MLL FL inh: 0.1; Sfp PPTase inh: -4%

What do the screens show for `O=C(CC1SC(=Nc2ccccc2)N(Cc2ccccn2)C1=O)Nc1ccc(Br)cc1` (stereo not given)?
gsp ag: 0%[15.4 µM]; gsp antagonist: -16%; TRPML1 inh: 5; TRPV1 PAM: -10; ClpP mod: 35%; Menin-MLL FL inh: 7.2; Sfp PPTase inh: -12%

Results for CN(Cc1ccccc1)C(=O)C1CCCN1S(=O)(=O)c1ccc2c(c1)n(C)c(=O)c(=O)n2C (stereo not given) ?
gsp ag: 4%[15.4 µM]; gsp antagonist: -3%; TRPML1 inh: 6; Menin-MLL FL inh: 1.7; Sfp PPTase inh: 17%

What do the screens show for `COC(=O)c1c(NC(=O)c2ccc(S(=O)(=O)N3CCOCC3)cc2)sc2c1CCN(C)C2`?
gsp ag: 7%; gsp antagonist: 5%; TRPML1 inh: 4; TRPV1 PAM: -6; ClpP mod: 3.4%; Menin-MLL FL inh: 6.2; Sfp PPTase inh: 14%

Results for Cc1ccc(NS(=O)(=O)c2ccccc2Cl)c2c1CC(C)(C)O2 ?
gsp ag: 6%; gsp antagonist: inconclusive; TRPML1 inh: 9; TRPV1 PAM: -5; ClpP mod: 3.4%; Menin-MLL FL inh: -2.3; Sfp PPTase inh: -2%

What do the screens show for `CCOc1ccc(NC(=O)C(C)C(Cc2ccc(C)cc2)C(=O)O)cc1` (stereo not given)?
gsp ag: -22%; gsp antagonist: -12%; TRPML1 inh: -17; TRPV1 PAM: 0; ClpP mod: 1.8%; Menin-MLL FL inh: 4.6; Sfp PPTase inh: 7%

What do the screens show for `CC1(c2nnc(Cc3ccccc3)o2)CC(c2cccc(F)c2)=NO1` (stereo not given)?
gsp antagonist: 8%; TRPML1 inh: -4; TRPV1 PAM: inconclusive; ClpP mod: 1.3%

How did O=C(c1cc2sccc2n1Cc1ccc(F)cc1)N1CCN(c2nc3ccccc3s2)CC1 do in these assays?
gsp ag: 18%; gsp antagonist: inconclusive; TRPML1 inh: 22; TRPV1 PAM: 7; ClpP mod: -4.3%; Menin-MLL FL inh: -3.0; Sfp PPTase inh: 2%

Results for NS(=O)(=O)c1ccc(N=Nc2c(O)[nH]c3ccc(Br)cc23)cc1 ?
gsp ag: 5%; gsp antagonist: -1%; TRPML1 inh: -21; TRPV1 PAM: 2; Menin-MLL FL inh: inconclusive; Sfp PPTase inh: 15%

How did COC(=O)c1ccccc1N1C(=O)C2C(C1=O)C1C=CC2C12CC2 (stereo not given) do in these assays?
gsp ag: -31%; gsp antagonist: 6%; TRPML1 inh: 11; TRPV1 PAM: -4; ClpP mod: -1.5%; Menin-MLL FL inh: inconclusive; Sfp PPTase inh: 7%

Results for Cc1ccc(C(=O)N/C(=C/c2cccnc2)C(=O)O)cc1 ?
gsp ag: 10%; gsp antagonist: 16%; TRPML1 inh: -12; TRPV1 PAM: -11; ClpP mod: -1.3%; Menin-MLL FL inh: -3.7; Sfp PPTase inh: 12%

Results for CCn1c(C)cc(/C=C2\NC(=O)N(CC(=O)Nc3cccc(C)c3)C2=O)c1C ?
gsp ag: -2%; gsp antagonist: 4%; TRPML1 inh: 28; TRPV1 PAM: -14; ClpP mod: -3.6%; Menin-MLL FL inh: 21; Sfp PPTase inh: -6%

What do the screens show for `O=C(CCN1CCC2CCC(C2)C1)c1ccccc1` (stereo not given)?
gsp ag: 12%[15.4 µM]; gsp antagonist: 4%; TRPML1 inh: -8; ClpP mod: -2.1%

What do the screens show for `CCOC(=O)C1=C(C)NC(=O)C(C#N)C1c1ccncc1` (stereo not given)?
gsp ag: -28%; gsp antagonist: -1%; TRPML1 inh: -5; TRPV1 PAM: 4; ClpP mod: 0.4%; Menin-MLL FL inh: -2.5; Sfp PPTase inh: -9%

Results for CC1CCC2(CC1)NC(=O)N(NC(=O)CSc1nnc(NC3CC3)s1)C2=O (stereo not given) ?
gsp ag: 7%; gsp antagonist: 7%; TRPML1 inh: -2; TRPV1 PAM: 5; ClpP mod: -1.0%

What do the screens show for `Cc1cccc(OCC(=O)NNC(=O)C2CCN(c3ncnc4sc(C)c(C)c34)CC2)c1`?
gsp ag: 4%; gsp antagonist: inconclusive; TRPML1 inh: 21; TRPV1 PAM: 9; ClpP mod: 1.1%

Results for COc1cc(OC)c(C(=O)OCC(=O)Nc2cc(C)on2)cc1OC ?
gsp ag: 8%[15.4 µM]; gsp antagonist: 9%; TRPML1 inh: 17; TRPV1 PAM: -5; Menin-MLL FL inh: -1.3; Sfp PPTase inh: -3%

What do the screens show for `COc1ccccc1N(C)S(=O)(=O)c1ccc(C(=O)Nc2nnc(C)s2)cc1`?
gsp ag: -33%[inhibitor]; gsp antagonist: -13%; TRPML1 inh: -6; TRPV1 PAM: 12; ClpP mod: -3.0%

What do the screens show for `Clc1ccc(NN(Cc2ccncc2)c2ccc(Cl)cc2)cc1`?
gsp ag: -1%; TRPML1 inh: -7; ClpP mod: 0.0%

How did CCCCN(C)CCCNC(=O)C1CC(=O)N(Cc2ccc(OC)cc2)C1 (stereo not given) do in these assays?
gsp ag: 10%; gsp antagonist: 2%; TRPML1 inh: 25; TRPV1 PAM: -1; ClpP mod: -0.4%; Menin-MLL FL inh: 2.0; Sfp PPTase inh: 16%

Results for Cc1ccc(C(=O)CC(=O)c2ccccc2)cc1 ?
gsp ag: -10%; gsp antagonist: -9%; TRPML1 inh: -8; TRPV1 PAM: -22; ClpP mod: 8.1%; Menin-MLL FL inh: 9.7; Sfp PPTase inh: 7%

How did COCCNC(=O)Cn1nc(C(F)(F)F)c(Cl)c1C do in these assays?
gsp ag: -32%; gsp antagonist: 7%; TRPML1 inh: 2; TRPV1 PAM: 22; ClpP mod: -20%; Menin-MLL FL inh: -2.7; Sfp PPTase inh: 7%

How did CCCS(=O)(=O)N1CCCC(C(=O)NCc2ccc3c(c2)OCO3)C1 (stereo not given) do in these assays?
gsp ag: 0%; gsp antagonist: 3%; TRPML1 inh: 0; TRPV1 PAM: 8; ClpP mod: -1.7%; Menin-MLL FL inh: 40[activator]; Sfp PPTase inh: 6%

Results for CC/C(=N/OC(=O)c1cccc(C)c1)C(=O)c1cccs1 ?
gsp ag: -28%; gsp antagonist: -3%; TRPML1 inh: 1; TRPV1 PAM: -15; Menin-MLL FL inh: -0.1; Sfp PPTase inh: -1%

How did Cc1nnc2n(c1=O)C(CS(=O)(=O)c1ccc3ccccc3c1)CS2 (stereo not given) do in these assays?
gsp ag: 1%[15.4 µM]; gsp antagonist: 8%; TRPML1 inh: 17; TRPV1 PAM: 2; Menin-MLL FL inh: 1.9; Sfp PPTase inh: 3%

Results for Cc1cc(C(=O)CSc2nc(N)cc(=O)[nH]2)c(C)n1CCc1ccc(F)cc1 ?
gsp ag: inconclusive; gsp antagonist: -9%; TRPML1 inh: 18; TRPV1 PAM: 7; ClpP mod: -1.4%; Menin-MLL FL inh: 5.1; Sfp PPTase inh: 0%

How did COc1ccc(CCNC(=O)COC(=O)c2cccs2)cc1OC do in these assays?
gsp ag: -9%; gsp antagonist: 11%; TRPML1 inh: 6; TRPV1 PAM: -11; Menin-MLL FL inh: -3.2; Sfp PPTase inh: 19%

Results for Cc1nnc(NC2=NCCC2)o1 ?
gsp ag: -9%; gsp antagonist: 9%; TRPML1 inh: -7; TRPV1 PAM: 2; ClpP mod: -1.6%; Menin-MLL FL inh: 1.1; Sfp PPTase inh: inconclusive

How did Cc1cc(C)nc(NC(=O)c2ccc(COc3ccccc3Cl)cc2)c1 do in these assays?
gsp ag: 19%; gsp antagonist: -27%; TRPML1 inh: 14; TRPV1 PAM: 4; Menin-MLL FL inh: -3.2; Sfp PPTase inh: inconclusive

What do the screens show for `O=C(CCc1nnc(COc2ccccc2)o1)NCCc1cccs1`?
gsp ag: -22%; gsp antagonist: -2%; TRPML1 inh: -4; TRPV1 PAM: 4; ClpP mod: 2.0%; Menin-MLL FL inh: 3.6; Sfp PPTase inh: 2%

How did Cc1ccccc1OCC(=O)Nc1ccc(S(=O)(=O)N2CCOCC2)cc1 do in these assays?
gsp ag: 26%[15.4 µM]; gsp antagonist: 6%; TRPML1 inh: 27; TRPV1 PAM: 0; ClpP mod: -1.9%; Menin-MLL FL inh: 2.4; Sfp PPTase inh: 7%

Results for CCOC(=O)[C@@H](CCc1ccccc1)N[C@H](C)C(=O)N1[C@H](C(=O)O)C[C@@H]2CCC[C@@H]21 ?
gsp antagonist: -6%; TRPML1 inh: 43; TRPV1 PAM: 2; ClpP mod: -2.2%; Menin-MLL FL inh: -2.3; Sfp PPTase inh: 10%
